Screening results (PubChem BioAssay)
gsp agonist = agonists of gsp mutant (McCune-Albright syndrome). gsp mutant cells, cAMP HTRF, 30 min; control for the full effect not named in the record. Potency, µM (top dose mostly 76.9 µM), for inactives: at the top dose activation (cAMP increase), actives largely listed as activators. 340,000 compounds, 0.13% hits; active = well fitted activation curve with a large enough effect; inconclusive = small, poorly fitted or top-dose-only effect, or another doubt; inactive = no such curve, though single readings can be large or run the other way; cell line not stated here;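 further: phosphodiesterase inhibitor Ro 20-1724 added with compounds to block cAMP breakdown; potency means the concentration at half of the fitted maximal effect; nearly all actives have a fitted effect of over 60% in size; about a fifth of the inactives were tested at one dose only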
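Cells in DMEM/10% FBS with G418 were pretreated with compounds in DMSO plus […] (300 uM stock) for 30 min at 37C. cAMP was measured by HTRF (cAMP-d2 plus anti-cAMP antibody-K) after 30 min at room temperature.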
TRPV1 PAM = enhances activation of the human vanilloid receptor TRPV1 | Q8NER1 | TRPV1-expressing cells, Fluo-8 calcium influx, capsaicin EC20 potentiation; host cell line not named in the record; control for the full effect not named in the record | potentiation, % at 8.33 µM | 320,000 compounds, 0.02% hits; active means potentiation above 80%; inconclusive means 30% to 80%; inactive means below 30%; further: 0% is about no effect
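Fluo-8 calcium influx in TRPV1-expressing cells, kinetic read (ex 480/em 520 nm). Compound added and read 3 min for agonist activity, followed by capsaicin at EC20 final and 2 min further read for enhancement.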
gsp antag = gsp mutant antagonism | AID 624288 | Potency, µM (titrated, usually from 76.9 µM), inactives show at the highest dose activity change, negative = inhibition, usual class: inhibitors | gsp-mutant cells, cAMP HTRF, 30 min; control for the full effect not named in the record | 340,000 compounds, 0.4% hits; active = falling curve of any shape with a large fitted effect; inconclusive = falling curve, mostly with a smaller effect; inactive = flat or rising curve; cell line not stated here;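 further: intracellular cAMP measured with PDE inhibitor Ro 20-1724 present during compound exposure; potency means the concentration at half of the fitted maximal effect; on the % scale 0 is the no-effect control and ±100 the full control effect; nearly all actives have a fitted effect of over 65% in size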
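HTRF cAMP read-out (cAMP-d2 plus anti-cAMP antibody-K in lysis buffer, 30 min RT). Before lysis, cells are exposed to compounds with […] for 30 min at 37C in DPBS containing Ca/Mg, BSA and Tween 20.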
Menin MLL FP FL = menin-MLL binding inhibition, fluorescein peptide. Fluorescence polarization, fluorescein-MLL peptide displacement from menin. FP activity change, % at 61.4 µM. 290,000 tested, under 10 active. AID 1766; inconclusive = falling polarisation curve, or a change in total fluorescence; inactive = total fluorescence flat and polarisation flat or rising; no compound was filed as active; the % refers to the polarisation; negative = inhibition;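 further: % of control where 0% means no effect; inhibitors lower the polarisation; unlabelled MLL peptide was the positive control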
TRPML1 inh = human mucolipin-1 channel inhibition; 390,000 compounds, 0.02% hits; activity change, negative = inhibition, % (test concentration not listed); AID 624415; TRPML1-inducible cells, Ca2+ dye fluorescence, FDSS; active compounds read low; inhibition of EC80 agonist-evoked calcium signal; in the data active means activity change below about -50%; inconclusive means about -30% to -50%; inactive means above about -30%;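 further: stimulus is agonist 54-4 at its EC80 concentration; on the % scale 0 is the no-effect control and ±100 the full control effect; compound concentration not given in the record; the text of the record puts the active cut at -80%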
Target sequence (Q9GZU1 whole entry, looked up): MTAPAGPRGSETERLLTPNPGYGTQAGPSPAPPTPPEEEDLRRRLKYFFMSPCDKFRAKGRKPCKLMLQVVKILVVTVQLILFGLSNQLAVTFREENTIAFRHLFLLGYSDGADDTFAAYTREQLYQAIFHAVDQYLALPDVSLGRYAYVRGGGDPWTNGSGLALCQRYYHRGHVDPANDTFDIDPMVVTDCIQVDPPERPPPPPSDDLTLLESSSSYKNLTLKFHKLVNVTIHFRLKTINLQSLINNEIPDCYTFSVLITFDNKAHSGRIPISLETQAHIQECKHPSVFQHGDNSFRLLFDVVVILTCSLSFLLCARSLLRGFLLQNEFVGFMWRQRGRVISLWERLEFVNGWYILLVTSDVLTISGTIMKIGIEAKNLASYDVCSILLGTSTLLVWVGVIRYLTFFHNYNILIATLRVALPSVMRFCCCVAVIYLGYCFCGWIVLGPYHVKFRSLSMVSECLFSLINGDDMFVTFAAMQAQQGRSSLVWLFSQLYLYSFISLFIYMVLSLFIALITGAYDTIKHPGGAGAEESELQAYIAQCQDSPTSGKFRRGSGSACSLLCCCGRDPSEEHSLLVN
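Calcium fluorescence in TRPML1-DL cells induced overnight with Tet: a 110 s read after compound pin addition, then a 110 s antagonist read after challenge with 54-4 at 4 uM final (EC80).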
Sfp inh = Sfp phosphopantetheinyl transferase inhibition | Q9F4F7 | Biochemical Sfp PPTase activity, qHTS | Potency, µM, without a hit: max response, negative = inhibition, hits mostly inhibitors | 310,000 compounds, 3.5% hits | AID 1490; active means well fitted inhibition curve with a large enough effect; inconclusive means small, poorly fitted or top-dose-only effect, or another doubt; inactive means no such curve, though single readings can be large or run the other way;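 further: the enzyme is Sfp with the accession as filed and its product quenches rhodamine fluorescence; potency means the concentration at half of the fitted maximal effect; 0% = enzyme reaction without inhibitor and -100% = no enzyme wells; top concentration of the series not given in the record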
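Reaction rates are the 30-min fluorescence difference (ex 525, em 598 nm) in wells containing 15 nM Sfp, 5 uM rhodamine-CoA and 12.5 uM BHQ-2-YbbR at pH 7.6 with 10 mM MgCl2.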
ClpP mod = qHTS Assay for Activators of ClpP; purified B. subtilis ClpP, FRET peptide cleavage, 20 min; Potency, µM (doses to about 57.5 µM), without a hit: at the top dose activity change, negative = active; 340,000 compounds, 1.9% hits; active = well fitted falling curve with a large enough effect; inconclusive = small, poorly fitted or top-dose-only effect; inactive = no such curve, though single readings can be large or run the other way; further: potency means the concentration at half of the fitted maximal effect; the source files actives as falling curves though it sought activators and does not explain the sign; nearly all actives have a fitted effect of over 65% in size; many hits overshoot -100%
Target sequence (P80244 whole entry, looked up): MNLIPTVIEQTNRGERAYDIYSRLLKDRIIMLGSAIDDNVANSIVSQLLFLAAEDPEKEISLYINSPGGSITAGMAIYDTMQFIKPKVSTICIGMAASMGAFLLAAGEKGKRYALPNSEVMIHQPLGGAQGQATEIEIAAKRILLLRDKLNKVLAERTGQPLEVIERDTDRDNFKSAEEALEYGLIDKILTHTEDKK
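Purified B. subtilis ClpP, 10 microg/mL final in Tris/HCl pH8 with KCl, BSA, glycerol and Tween-20, cleaved an Abz/nitrotyrosine-quenched decapeptide. Fluorescence (ex 320, em 430) was read at 0 and 20 min at room temperature. Delta was normalized to 5.8 microM ADEP and DMSO/no-enzyme controls.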
* marks the source's active call; other numbers are inactive results; ? = inconclusive; nt = no result given; & = joins results of further samples; [ ] = another dose, or the depositor's remark.

SMILES	gsp agonist	TRPV1 PAM	gsp antag	Menin MLL FP FL	TRPML1 inh	Sfp inh	ClpP mod
CN(C)S(=O)(=O)N(CC(=O)Nc1ccc(S(=O)(=O)N2CCCC2)cc1)c1ccccc1	-10%	-1	-2%	1.5	-7	2%	1.2%
O=C(COc1ccc(F)cc1)Nc1nnc(S(=O)(=O)N2CCCC2)s1	-21%	3	-11%	0.5	-10&-2	22%	-2.3%&0.0%
CC(C)CN(Cc1c(O)ccc2c(=O)c(-c3ccccc3)coc12)CC(C)C	-88%	-1	17%	-4.7	22	14%	-12%
OC(CCN1CCOCC1)c1ccccc1 (stereo not drawn)	2%	-19	-5%	-0.4	-8	10%	nt
O=C(CCc1nc(-c2ccccc2F)no1)NC1CCN(Cc2ccccc2)CC1	16%	?	5%[15.4 µM]	1.2	-7	14%	-1.8%
CCc1ccc(S(=O)(=O)N2CCCC(N3CCN(c4ccc(OC)cc4)CC3)C2)cc1 (stereo not drawn)	29%	9	2%	nt	7	13%	-2.0%
O=C(CCc1nc2sc3c(c2c(=O)[nH]1)CCCC3)Nc1cccc(Cl)c1	5%	12	1%	nt	36	nt	-3.3%
CCN(CC)C(=O)c1cccc(NC(=O)c2ccccc2OCc2c(C)noc2C)c1	-8%	10	-7%	nt	13	nt	0.4%
CCN(CC)S(=O)(=O)c1ccc(N2CCOCC2)c(NC(=O)c2c3c(nc4ccccc24)CCC3)c1	?	3	17%	1.7	-5	15%	-1.0%
O=C(NCc1ccccc1F)C1CCCN(C(=O)Nc2ccccc2)C1 (stereo not drawn)	15%	24	8%	-7.9	10	8%	nt
CCc1ccc(OCc2ccccc2C(=O)Nc2ccc3nc(C)cc(N)c3c2)cc1	nt	nt	nt	5.6	nt	13µM*	-2.5%
COCCNC(=O)Cn1cnc2sc(C)c(S(=O)(=O)N3CCN(c4ccccc4OC)CC3)c2c1=O	10%	2	0%	-4.2	14&-3	15%	0.8%
CC(=O)c1ccc(NC(=O)c2ccc(-n3cnnn3)cc2)cc1	2%[15.4 µM]	-36	16%	nt	-12	nt	nt
Cc1cc(C)c(C)c(S(=O)(=O)Nc2ccc(C(N)=O)cc2)c1C	-24%	-12	-14%	0.0	17	8%	nt
CN(c1nc2ccccc2[nH]c1=O)C1CCCCC1	-2%[15.4 µM]	-1	1%	0.2	8	16%	nt
CC(NC(=O)C1CCN(S(=O)(=O)c2cccc3nonc23)CC1)c1ccccc1 (stereo not drawn)	9%	4	6%	-4.8	-2	0%	nt
O=C(CNC1CCCCC1)Nc1ccc(S(=O)(=O)N2CCCCC2)cc1	4%[15.4 µM]	-4	-15%	-0.1	6	1%	nt
C/C(=N\O)C(=O)Nc1ccccc1	-23%	-1	1%	0.5	-17	12%	-0.4%
CCc1ccc(OCC(=O)NC(NC(=S)Nc2ccccc2OC)C(Cl)(Cl)Cl)cc1 (stereo not drawn)	-30%	8	?	5.6	20	17%	2.4%
Cc1cccc(OCC(=O)Nc2ccc(N3CCN(S(C)(=O)=O)CC3)cc2)c1	9%	0	9%	6.3	25	10%	0.0%
CCc1nnc(NS(=O)(=O)c2ccc(NC(=S)NC(=O)/C=C/c3ccc([N+](=O)[O-])cc3)cc2)s1	0%	-6	2%	-0.7	16	7%	0.9%
c1ccc2c(C3=NNC(=NC4CCCCC4)SC3)c[nH]c2c1	-7%	-12	-2%	9.0	7	-10%	-0.2%
CCOC(=O)c1sc(NC(=O)CCN2CC(C)OC(C)C2)c(C(=O)OCC)c1C (stereo not drawn)	nt	-15	nt	0.7	nt	18%	nt
Nc1nncn1C(=O)c1ccccc1Cl	0%	3	12%	0.7	3	6%	-0.3%
CCC1CN(C(=O)N2CCC(C(=O)NCc3ccccc3OC)CC2)c2cc(C)ccc2O1 (stereo not drawn)	5%	9	?	nt	0	9%	1.2%

New compounds follow
SMILES	gsp agonist	TRPV1 PAM	gsp antag	Menin MLL FP FL	TRPML1 inh	Sfp inh	ClpP mod
COC(=O)c1cccc(C(=O)N2CCCC(C(=O)c3ccccc3OC)C2)c1 (stereo not drawn)	5%[15.4 µM]	19	5%	nt	21	1%	-1.9%
O=C(CSc1ccc2nnc(CCNC(=O)c3ccccc3)n2n1)Nc1ccccc1	?	?	2%	3.0	-28	-16%	nt
CCN(CC)CC(=O)c1c[nH]c2ccccc12	0%	4	2%	5.6	-1	4%	-1.0%
COCCn1c(SCC(=O)Nc2ccc(C)cc2C)nc2c(oc3ccccc32)c1=O	-22%	-4	4%	4.7	-11	-10%	1.6%
CCc1ccc2c(c1)C(=O)C(=O)N2CCS(=O)(=O)c1ccccc1	0%	-3	-6%	nt	-2	2%	0.2%
Cn1cc(CCNC(=O)CC2C(=O)NCCN2Cc2cccc(Oc3ccccc3)c2)cn1 (stereo not drawn)	-279%[inhibitor]	27	-25%	-0.3	-13	0%	-1.1%
O=C(Cn1ccc2ccccc2c1=O)NCCC(=O)N1CCN(c2ccccc2)CC1	-37%[inhibitor]	0	-8%	0.5	-10	8%	nt
COC(=O)c1c(NC(NC(C)=O)C(Cl)(Cl)Cl)sc2c1CCCC2 (stereo not drawn)	-9%[15.4 µM]	?	-23%	7.9	1	?	-3.6%
COc1ccc(S(=O)(=O)N2CCCC2c2cccs2)cc1 (stereo not drawn)	-15%	-11	8%	2.3	6	18%	-0.5%
CCCn1nnnc1NCc1ccc(Cl)cc1Cl	6%	-11	-4%	0.9	5	3%	0.2%
Cc1ccc(S(=O)(=O)n2cccc2C)cc1	13%	nt	2%	nt	8	nt	nt
Cc1ccc(C(=O)OCC(=O)NNC(=O)c2cccs2)c(O)c1	6%[15.4 µM]	-3	2%	nt	-10	nt	nt
COc1ccc(C(=O)OCC(=O)NC(=O)NC2CCCC2)c(O)c1	2%[15.4 µM]	-7	-6%	1.5	-3	11%	-3.2%
O=C(CN1C(=O)S/C(=C/c2cc(Br)cs2)C1=O)N1CCOCC1	26%	10	-2%	-3.2	-3	6%	-0.4%
O=C(Nc1ccccc1)c1ccc(OC(=O)c2ccccc2)cc1	2%[15.4 µM]	0	-1%	-0.4	-10	10%	0.5%
CCCc1nc(SC2CCCC2)c2c(=O)n(C)c(=O)n(C)c2n1	-43%[inhibitor]	2	-7%	-0.4	-12	-19%	0.2%
CCCCc1nnc(SCc2ccc(OCC)cc2)n1N	2%	2	20%	-1.0	-6	19%	1.7%
COc1ccc(/C=N/NC(=O)c2[nH]c3ccc(C)cc3c2-c2ccccc2)c(C(=O)O)c1OC	-16%	-9	6%	-15	25	8%	nt
O=C(CSc1nnc2c(n1)[nH]c1ccc(F)cc12)OCc1ccccc1	4%	-10	-6%	0.9	-6	18%	0.9%
O=C(NCC(=O)N(Cc1cccs1)C(C(=O)NC1CCCCC1)c1ccco1)c1cccs1 (stereo not drawn)	-5%	-13	-16%	-1.3	2	31%[activator]	-0.4%
O=C1OCc2ccc(NC(=O)c3sccc3Cl)cc21	-15%	7	3%	-0.3	-2	-9%	-13%
COc1ccc(-c2nn(-c3ccccc3)cc2C(=O)n2nnc3ccccc32)cc1	?	-4	16%	0.0	-16	-1%	-1.5%
O=C(Cn1cc2c(n1)CCCC2)N1CCc2ccccc21	-21%	6	-5%	0.8	0	5%	2.3%
COc1ccc(C(=O)NCc2nc3ccccc3[nH]2)cc1OC	15%	23	0%	1.8	5	-1%	-4.5%
CCC(=O)Nc1ccc(OCc2nc3ccccc3s2)cc1	6%[15.4 µM]	4	-16%	16	11	45µM*	nt

Further structures.
SMILES	gsp agonist	TRPV1 PAM	gsp antag	Menin MLL FP FL	TRPML1 inh	Sfp inh	ClpP mod
CN(C)Cc1ccc(F)cc1Sc1ccc(Cl)cc1Cl	?	10	1%	4.1	16	0%	2.8%
O=C(NCc1ccccc1C(F)(F)F)C1CC(O)CN1C(=O)Nc1ccccc1 (stereo not drawn)	-5%	3	5%	2.7	-14	5%	2.7%
O=C1/C(=C\c2cc(Cl)c(O)c(Cl)c2)SC(=S)N1Cc1ccccc1	?	9	?	?	-11	?	nt
Cc1ccc(S(=O)(=O)N2CCOCC2)cc1C(=O)NCc1ccccc1CN1CCCC1	?	1	1%	nt	-15	nt	-1.2%
Cn1c(=O)c2c(nc(Sc3nc4ccccc4n3CC(=O)N3CCCCC3)n2C)n(C)c1=O	?	1	11%	3.1	30	6%	-11%
CC(=O)c1ccc(Nc2ccc([N+](=O)[O-])c3nonc23)cc1	?	3	-29%	?	40	5%	-1.0%
O=C(O)CN(c1ccccc1)S(=O)(=O)c1cc(C(F)(F)F)cc(C(F)(F)F)c1	-23%	-4	8%	-1.5	16	11%	nt
Cc1ccc(-c2csc(C3=C(O)CN(NC(=O)c4ccc([N+](=O)[O-])cc4)C3=N)n2)cc1	?	5	4%	5.0	-14	1%	nt
CCCc1nnc(NC(=O)CCC(=O)Nc2ccc(Cl)cc2)s1	-1%	28	12%	-3.0	-7	-5%	-0.8%
CC(C)CCNC(=O)c1ccc2c(SCC(=O)O)c3c(nc2c1)CCC3	20%[15.4 µM]	8	-2%	0.4	-5	-2%	nt

Complete entries as entered above. Screens in order: gsp agonist	TRPV1 PAM	gsp antag	Menin MLL FP FL	TRPML1 inh	Sfp inh	ClpP mod
Cc1ccc(-c2csc(C3=C(O)CN(NC(=O)c4ccc([N+](=O)[O-])cc4)C3=N)n2)cc1 across the screens: ?	5	4%	5.0	-14	1%	nt
O=C1/C(=C\c2cc(Cl)c(O)c(Cl)c2)SC(=S)N1Cc1ccccc1 across the screens: ?	9	?	?	-11	?	nt
CC(=O)c1ccc(Nc2ccc([N+](=O)[O-])c3nonc23)cc1 across the screens: ?	3	-29%	?	40	5%	-1.0%

As a working copy, 3 of the compounds above:
SMILES	gsp agonist	TRPV1 PAM	gsp antag	Menin MLL FP FL	TRPML1 inh	Sfp inh	ClpP mod
CN(C)Cc1ccc(F)cc1Sc1ccc(Cl)cc1Cl	?	10	1%	4.1	16	0%	2.8%
O=C(NCc1ccccc1C(F)(F)F)C1CC(O)CN1C(=O)Nc1ccccc1 (stereo not drawn)	-5%	3	5%	2.7	-14	5%	2.7%
O=C1/C(=C\c2cc(Cl)c(O)c(Cl)c2)SC(=S)N1Cc1ccccc1	?	9	?	?	-11	?	nt
